KCNQ2 pot = potentiators of rat KCNQ2 potassium channel; Potassium voltage-gated channel subfamily KQT member 2 (Rattus norvegicus), O88943; CHO-K1 KCNQ2, FluxOR thallium flux fluorescence; active compounds read high; B-score at 10 µM; actives 0.54% (n = 310,000);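 active = fluorescence ratio B-score at least 3 SD of library B-scores, with initial fluorescence B-score within 3 SD, cut at about 5.3 in these data; same plate scores as AID 2156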;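 also: B-score of peak minus minimum over baseline fluorescence ratio after K+ and Tl+ stimulus; positive B-score means potentiation of KCNQ2 with more thallium influx and brighter signal; only the inactives scoring about 0 or higher are listed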
Target sequence (O88943 whole entry, looked up): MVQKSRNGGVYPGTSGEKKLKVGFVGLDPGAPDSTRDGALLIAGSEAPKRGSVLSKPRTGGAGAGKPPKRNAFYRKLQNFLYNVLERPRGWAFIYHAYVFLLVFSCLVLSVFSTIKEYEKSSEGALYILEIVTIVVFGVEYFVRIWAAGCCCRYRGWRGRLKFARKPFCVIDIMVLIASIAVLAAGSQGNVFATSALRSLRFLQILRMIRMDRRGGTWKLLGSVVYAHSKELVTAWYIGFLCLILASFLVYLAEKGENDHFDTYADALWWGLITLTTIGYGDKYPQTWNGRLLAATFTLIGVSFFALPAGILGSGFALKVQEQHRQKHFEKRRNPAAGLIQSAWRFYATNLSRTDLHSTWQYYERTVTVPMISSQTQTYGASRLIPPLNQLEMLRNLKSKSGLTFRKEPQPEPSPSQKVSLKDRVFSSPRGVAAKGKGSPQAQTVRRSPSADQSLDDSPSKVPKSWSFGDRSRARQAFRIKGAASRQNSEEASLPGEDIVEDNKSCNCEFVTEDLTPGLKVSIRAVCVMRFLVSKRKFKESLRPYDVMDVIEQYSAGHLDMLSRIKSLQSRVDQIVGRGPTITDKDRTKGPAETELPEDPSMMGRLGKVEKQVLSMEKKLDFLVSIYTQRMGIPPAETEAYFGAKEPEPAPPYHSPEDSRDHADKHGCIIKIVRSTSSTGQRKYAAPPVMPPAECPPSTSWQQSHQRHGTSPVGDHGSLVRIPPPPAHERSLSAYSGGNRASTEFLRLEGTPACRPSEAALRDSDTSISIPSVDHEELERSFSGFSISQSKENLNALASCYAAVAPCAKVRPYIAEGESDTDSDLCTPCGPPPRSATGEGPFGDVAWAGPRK
KCNQ2 pot baseline = also measured in KCNQ2 pot; calls as there; B-score; compound at 10 µM; measured here: initial fluorescence intensity artifact check;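 brightness before thallium and not channel activity; 0 = typical well and far values either way flag optical interference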
An asterisk follows results filed as active.

What do the screens show for `Cc1ccc(C)c(-n2c(SCC(=O)N3CCCC3)nnc2-c2ccccn2)c1`?
KCNQ2 pot: 0.11; KCNQ2 pot baseline: 1.2

How did O=C(Oc1ccc2ccc(=O)oc2c1)C1CCCCC1 do in these assays?
KCNQ2 pot: 0.51; KCNQ2 pot baseline: 0

Results for COc1ccccc1OCCSc1nc(N)cc(N)n1 ?
KCNQ2 pot: 1.7; KCNQ2 pot baseline: -0.04

Results for Cc1c(Cl)c([N+](=O)[O-])nn1CCCC(=O)Nc1cccnc1 ?
KCNQ2 pot: 2.1; KCNQ2 pot baseline: -0.09

What do the screens show for `COCCNC(=O)c1ccc(CS(=O)(=O)c2ccc(Cl)cc2)o1`?
KCNQ2 pot: 1.2; KCNQ2 pot baseline: 0.45

What do the screens show for `CC(C)CCn1c(=O)c2ccccc2n2c(CN3CCCC3)nnc12`?
KCNQ2 pot: 1; KCNQ2 pot baseline: -2.2

How did O=C(Nc1cccc(C(=O)N2CCOCC2)c1)c1ccccc1Cl do in these assays?
KCNQ2 pot: 0.55; KCNQ2 pot baseline: 1.1

How did O=C(Nc1cccc(-c2cnc3ccccc3n2)c1)C1CC(=O)N(c2ccccc2)C1 (configuration not stated) do in these assays?
KCNQ2 pot: 0.95; KCNQ2 pot baseline: -0.6

What do the screens show for `Cc1ccc(NC(=O)CCN2C(=O)c3ccccc3C2=O)c(C)c1`?
KCNQ2 pot: 1.5; KCNQ2 pot baseline: -1.2

What do the screens show for `Cc1ccc(NC(=O)CN(C)C(=O)c2cc3ccccc3o2)cc1`?
KCNQ2 pot: 0.38; KCNQ2 pot baseline: -2.2

Results for Cc1ccc(S(=O)(=O)CCC(=O)NC2CCCC2)cc1 ?
KCNQ2 pot: 0.35; KCNQ2 pot baseline: -0.73

Results for O=C(CN1CCCCCC1)N1c2ccccc2C=Cc2ccccc21 ?
KCNQ2 pot: 0.48; KCNQ2 pot baseline: 0.46

How did O=C(Nc1ccccc1)Nc1snnc1C(=O)Nc1cccc(O)c1 do in these assays?
KCNQ2 pot: 0.3; KCNQ2 pot baseline: 0.12

Results for O=c1[nH]c(CSc2ncc(C(F)(F)F)cc2Cl)nc2cc(C(F)(F)F)ccc12 ?
KCNQ2 pot: 1.3; KCNQ2 pot baseline: -0.73

How did COc1cc(OC)c(/C=N/n2c(C)nnc2C)c(OC)c1 do in these assays?
KCNQ2 pot: 0.67; KCNQ2 pot baseline: 0.18

Results for Cc1ccc(C)c(CSCC(=O)NCc2cccs2)c1 ?
KCNQ2 pot: 0.13; KCNQ2 pot baseline: -1.8

What do the screens show for `CC(=O)Nc1ccc(NC(=O)CN(c2cc(Cl)ccc2Cl)S(C)(=O)=O)cc1`?
KCNQ2 pot: 0.89; KCNQ2 pot baseline: -3.2

Results for CCN(C(=O)COC(=O)c1ccccc1SCC(=O)N1CCCC1)C1CCS(=O)(=O)C1 (configuration not stated) ?
KCNQ2 pot: 0.8; KCNQ2 pot baseline: 1.9

How did CCOCCCn1c(SCC(=O)NCc2ccc3c(c2)OCO3)nc2ccccc2c1=O do in these assays?
KCNQ2 pot: 1.6; KCNQ2 pot baseline: 0.48

How did Cc1cc(C)nc(N2CCC(C(=O)NCCc3ccc(Cl)cc3)CC2)n1 do in these assays?
KCNQ2 pot: 0.03; KCNQ2 pot baseline: 2.1

What do the screens show for `COc1ccc(C(CNC(=O)CCNC(=O)c2ccccc2OC)N2CCCC2)cc1` (configuration not stated)?
KCNQ2 pot: 0.04; KCNQ2 pot baseline: -0.13

What do the screens show for `COc1cc(C(=O)Nc2ccc3c(c2)OCO3)ccc1OCc1c(C)noc1C`?
KCNQ2 pot: 0.5; KCNQ2 pot baseline: -0.22

What do the screens show for `Cc1cc(C(=O)CN2C(=O)C(=O)N(Cc3ccccc3)C2=O)c(C)n1CC1COc2ccccc2O1` (configuration not stated)?
KCNQ2 pot: 0.67; KCNQ2 pot baseline: -0.03

Results for Cc1c(C(=O)O)[nH]c2c1C(=O)CC(c1ccc(C(C)(C)C)cc1)C2 (configuration not stated) ?
KCNQ2 pot: 2.2; KCNQ2 pot baseline: -0.43

How did C/C(=N\N=C1\NC(=O)C(CC(=O)NCc2ccccc2)S1)C(C)C (configuration not stated) do in these assays?
KCNQ2 pot: 0.97; KCNQ2 pot baseline: -0.98

Results for Cc1cc(C(=O)C(C)Cl)c(C)n1Cc1ccco1 (configuration not stated) ?
KCNQ2 pot: 0.49; KCNQ2 pot baseline: -0.01

Results for COc1ccccc1C(=O)C1CCCN(C(=O)c2ccccc2C(C)=O)C1 (configuration not stated) ?
KCNQ2 pot: 0.95; KCNQ2 pot baseline: -0.28

How did CCCCCCCCCCCCS[C@H]1CS(=O)(=O)C[C@@H]1O do in these assays?
KCNQ2 pot: 1.2; KCNQ2 pot baseline: -0.01

What do the screens show for `O=C(CCN1CCCCC1)N/N=C/c1ccc(Br)cc1`?
KCNQ2 pot: 0.48; KCNQ2 pot baseline: -0.07

Results for Cc1cccc(/C=C/C(=O)c2cc(Br)ccc(=O)c2O)c1 ?
KCNQ2 pot: 0.33; KCNQ2 pot baseline: -0.41

How did O=C(Cn1cnc2cc([N+](=O)[O-])ccc2c1=O)Nc1ccc(N2CCOCC2)cc1 do in these assays?
KCNQ2 pot: 1.1; KCNQ2 pot baseline: -0.53

Results for CC(C)NC(=O)COC(=O)c1ccccc1CSC1=NCCS1 ?
KCNQ2 pot: 0.51; KCNQ2 pot baseline: -2

Results for N=c1c(C(=O)NCCc2ccccc2)cc2c(=O)n3ccccc3nc2n1Cc1ccco1 ?
KCNQ2 pot: 1.6; KCNQ2 pot baseline: 1.2

How did COc1ccc(N2CCN(C(=O)C3CCN(S(=O)(=O)c4ccc(F)cc4)CC3)CC2)cc1 do in these assays?
KCNQ2 pot: 0.25; KCNQ2 pot baseline: 0.94

Results for COc1ccc(NS(=O)(=O)c2ccc(NC(=O)c3ccc(CN4CCOCC4)cc3)cc2)cc1 ?
KCNQ2 pot: 2.5; KCNQ2 pot baseline: -0.39

Results for O=C(Cn1c(=O)c2ccccc2n(CC(=O)N2CCCCC2)c1=O)N1CCCCC1 ?
KCNQ2 pot: 0.27; KCNQ2 pot baseline: -0.35

Results for O=C(Cn1c(C(F)(F)F)nc2ccccc21)Nc1ccccc1N1CCOCC1 ?
KCNQ2 pot: 0.04; KCNQ2 pot baseline: 0.29

What do the screens show for `C/C(=N\O)C(=O)NCCN(C)C`?
KCNQ2 pot: 1.5; KCNQ2 pot baseline: 2.9

How did O=C(C1CCCCC1)N1CCN=C1SCc1cccnc1 do in these assays?
KCNQ2 pot: 1.4; KCNQ2 pot baseline: 1.6

Results for CCOc1ccc(Oc2c(/C=N/NC(N)=O)c(C)nn2-c2ccccc2)cc1 ?
KCNQ2 pot: 2; KCNQ2 pot baseline: -2.3

How did Cc1cc(C(F)F)n2ncc(C(=O)N3CCC(C(N)=O)CC3)c2n1 do in these assays?
KCNQ2 pot: 1.5; KCNQ2 pot baseline: -0.55

What do the screens show for `O=C(Nc1ccc2c(c1)OCCO2)C1CC(O)CN1C(=O)Nc1ccccc1` (configuration not stated)?
KCNQ2 pot: 1.5; KCNQ2 pot baseline: 0.93

How did Cc1nc2ccccn2c1-c1csc(Nc2ccc(C(=O)O)cc2)n1 do in these assays?
KCNQ2 pot: 0.79; KCNQ2 pot baseline: -1.2

How did CCc1cc(C(=O)NNC(=S)Nc2cc(C)ccc2C)cs1 do in these assays?
KCNQ2 pot: 1; KCNQ2 pot baseline: -0.12

How did Cn1cc(CNCCN2CCCCC2=O)c(-c2cccc(Cl)c2)n1 do in these assays?
KCNQ2 pot: 1.8; KCNQ2 pot baseline: -1.2

What do the screens show for `COc1ccccc1S(=O)Cc1ccc(C(=O)O)o1` (configuration not stated)?
KCNQ2 pot: 0.17; KCNQ2 pot baseline: -2.6

How did NC(=O)C1=NOC(CNc2ncc(C(F)(F)F)cc2Cl)C1 (configuration not stated) do in these assays?
KCNQ2 pot: 0.16; KCNQ2 pot baseline: 0.61

What do the screens show for `COCCn1ccc2c(OCC(=O)Nc3ccccc3OC)cccc2c1=O`?
KCNQ2 pot: 2.5; KCNQ2 pot baseline: -0.54

Results for Cc1ccc(Cn2c(C)cc3c(c2=O)C(c2cccs2)C(C#N)=C(N)O3)cc1 (configuration not stated) ?
KCNQ2 pot: 1.9; KCNQ2 pot baseline: -0.83

What do the screens show for `Cc1ccc(CNC(=O)CCCn2nc(C)c3c(C)n(-c4ccccc4)nc3c2=O)cc1`?
KCNQ2 pot: 0.16; KCNQ2 pot baseline: -0.87

Results for Cc1cccc(CSc2nnc(NC(=O)CSc3nnc(C)s3)s2)c1 ?
KCNQ2 pot: 0.67; KCNQ2 pot baseline: 0.64

How did N#C/C(=N\Nc1ccc(F)cc1)C(=O)C1CC1 do in these assays?
KCNQ2 pot: 2; KCNQ2 pot baseline: 0.28

How did COc1ccc(NC(=O)CSc2nnc(-c3cccnc3)s2)cc1 do in these assays?
KCNQ2 pot: 0.27; KCNQ2 pot baseline: 1.2

How did CCC1CCCCN1S(=O)(=O)c1ccc(NC(=O)c2ccncc2)cc1 (configuration not stated) do in these assays?
KCNQ2 pot: 2.6; KCNQ2 pot baseline: -0.21

How did Cc1cc(C(=O)COC(=O)c2ccc(O)cc2)c(C)n1CC1COc2ccccc2O1 (configuration not stated) do in these assays?
KCNQ2 pot: 0.49; KCNQ2 pot baseline: -0.01

How did O=C(CN1C(=O)c2cccc3cccc1c23)NC1CCCCC1 do in these assays?
KCNQ2 pot: 0.26; KCNQ2 pot baseline: 0.01

What do the screens show for `Cc1ccc(C)c(OCc2cc(C(=O)N3CCN(c4cnccn4)CC3)no2)c1`?
KCNQ2 pot: 0.51; KCNQ2 pot baseline: -1.4

Results for COc1cccc(C(=O)NCC(=O)n2nc(C)cc2C)c1 ?
KCNQ2 pot: 0.19; KCNQ2 pot baseline: 3.3

What do the screens show for `CC(C)NC(=O)CN(Cc1ccc2c(c1)OCO2)C(=O)CCC(=O)Nc1ccccn1`?
KCNQ2 pot: 0.02; KCNQ2 pot baseline: -0.35

How did Cc1cc(NCc2cccnc2)no1 do in these assays?
KCNQ2 pot: 0.94; KCNQ2 pot baseline: 1.7

In the list so far, 5 contain a furan ring, fused or not:
What do the screens show for `COCCNC(=O)c1ccc(CS(=O)(=O)c2ccc(Cl)cc2)o1`?
KCNQ2 pot: 1.2; KCNQ2 pot baseline: 0.45

What do the screens show for `Cc1ccc(NC(=O)CN(C)C(=O)c2cc3ccccc3o2)cc1`?
KCNQ2 pot: 0.38; KCNQ2 pot baseline: -2.2

Results for Cc1cc(C(=O)C(C)Cl)c(C)n1Cc1ccco1 (configuration not stated) ?
KCNQ2 pot: 0.49; KCNQ2 pot baseline: -0.01

Results for N=c1c(C(=O)NCCc2ccccc2)cc2c(=O)n3ccccc3nc2n1Cc1ccco1 ?
KCNQ2 pot: 1.6; KCNQ2 pot baseline: 1.2

What do the screens show for `COc1ccccc1S(=O)Cc1ccc(C(=O)O)o1` (configuration not stated)?
KCNQ2 pot: 0.17; KCNQ2 pot baseline: -2.6

Further entries follow.
What do the screens show for `COc1ccc(C)cc1N(CC(=O)Nc1ccc2c(c1)OCCO2)S(C)(=O)=O`?
KCNQ2 pot: 0.16; KCNQ2 pot baseline: -0.6

How did Cc1cccc(NC(=O)CSc2n[nH]c(-c3cccnc3)n2)c1 do in these assays?
KCNQ2 pot: 0.14; KCNQ2 pot baseline: 0.65

What do the screens show for `O=c1oc(-c2cccs2)nc2c1cnn2-c1ccccc1`?
KCNQ2 pot: 2; KCNQ2 pot baseline: 0.01

Results for Cc1cccc2c(-c3ccccc3)cc(=O)[nH]c12 ?
KCNQ2 pot: 0.86; KCNQ2 pot baseline: 1.8

What do the screens show for `CCOc1ccc(N(C(=O)Cn2nnc3ccccc32)C(C(=O)NC(C)(C)CC)c2cccn2C)cc1` (configuration not stated)?
KCNQ2 pot: 0.19; KCNQ2 pot baseline: 0.01

What do the screens show for `Cc1ccc(NS(=O)(=O)c2ccc3c(c2)CCC(=O)N3)cc1C`?
KCNQ2 pot: 1.6; KCNQ2 pot baseline: 7.4

How did CC(C)NC(=O)C(=O)NCc1ccccn1 do in these assays?
KCNQ2 pot: 0.49; KCNQ2 pot baseline: -0.66

What do the screens show for `Cc1cccc(OCC(=O)N/N=C/c2ccc3c(c2)OCO3)c1`?
KCNQ2 pot: 0.08; KCNQ2 pot baseline: -3.3

How did CCCCN1CC[C@H]2C=CC[C@@H](C(=O)Nc3ccc(OC)cc3)[C@H]2C1=O do in these assays?
KCNQ2 pot: 0.02; KCNQ2 pot baseline: 1.7

How did CCOC(=O)C1CCCN(CCCc2ccccc2)C1 (configuration not stated) do in these assays?
KCNQ2 pot: 0.54

How did Cc1ccc(Oc2ccc(C(=O)NC3CCSC3=O)cn2)cc1 (configuration not stated) do in these assays?
KCNQ2 pot: 0.77; KCNQ2 pot baseline: -2.3

Results for CCOC(=O)NC(=O)c1cn(CCN(C)C)c(=O)[nH]c1=O ?
KCNQ2 pot: 0.29; KCNQ2 pot baseline: 0.55

What do the screens show for `CSc1cccc(NC(=O)CCCNC(=O)c2ccc(Cl)cc2)c1`?
KCNQ2 pot: 1.1; KCNQ2 pot baseline: -0.22

Entries listed so far with a cyano group (2):
Results for Cc1ccc(Cn2c(C)cc3c(c2=O)C(c2cccs2)C(C#N)=C(N)O3)cc1 (configuration not stated) ?
KCNQ2 pot: 1.9; KCNQ2 pot baseline: -0.83

How did N#C/C(=N\Nc1ccc(F)cc1)C(=O)C1CC1 do in these assays?
KCNQ2 pot: 2; KCNQ2 pot baseline: 0.28

Screening results as filed in PubChem.

The list is partial; count on the stated rates, not on these rows.
